From PubChem BioAssay
A1 inhib – A1 inhibition | caspase activation, % (concentration not given with the values) | MEF A1-2A-BIM cells, caspase-Glo luminescence, 3 h; percent of clofoctol signal, DMSO as zero | hit rate 0.51% among 21,000;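 active = most replicate scores above 10, or exactly half above 10 with mean activity above 10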;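 also: effector caspase 3 and 7 activity cleaving a DEVD luciferin substrate; 50 nL library stock added to about 30 µL; numbers are from one replicate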
BJeLR viab HTS – compounds reducing viability of BJeLR cells. BJeLR fibroblasts viability, CellTiterGlo ATP luminescence, 48 h; HRASV12, hTERT and SV40 LT/ST transformed. viability loss activity score, % (no concentration beside the values). hit rate 0.64% among 30,000; in the data active = viability loss activity score above about 50%; about a fifth of its hits are not listed in these tables;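 also: higher score means fewer live cells and less ATP luminescence; stock transfer was 50 or 100 nL into about 30 µL; 0% = vehicle wells and 100% = a reference killing control; one replicate is shown; the record names a cut of 85%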
* hit, by the source's call; . = no result given. The list is partial; rates above refer to the full screens.

Values in the order: BJeLR viab HTS	A1 inhib
> O=S(=O)(Nc1nc(SCc2ccc(Cl)cc2)n[nH]1)c1ccc(F)cc1
 : 1.8	0.5
> O=C(NCCO)c1ccc(N2C(=O)c3ccccc3C2=O)cc1
 : -3.0	0.0
> O=C(CCSc1ccccc1)NC1CC1
 : -4.1	-1.0
> C=CCNC(=O)c1ccc2c(c1)N(CC)C(=O)c1ccccc1S2
 : 1.3	1.1
> Cn1c(C(=O)N2CCC(C(=O)O)CC2)cc2sccc21
 : -0.8	-0.4
> COc1ccc(NC(=O)Nc2cccc3c2O[C@H](CN(C)C(=O)Nc2ccc4c(c2)OCO4)[C@@H](C)CN([C@H](C)CO)C3=O)cc1
 : -2.1	.
> Cc1ccc(-n2nnnc2-c2c[nH]c3cc(Cl)c(F)cc23)cc1
 : -1.0	-0.1
> CC1=C(C(=O)OCCc2ccccc2)C(c2ccc(N(C)C)cc2)NC(=S)N1 (stereo unspecified)
 : -11.8	-0.6
> C[C@H]1CN([C@@H](C)CO)C(=O)c2cc(NS(C)(=O)=O)ccc2O[C@H]1CN(C)CC1CC1
 : -0.6	0.2
> Cc1noc(C)c1S(=O)(=O)Nc1cccc2c1O[C@@H](CN(C)C(=O)Nc1ccc3c(c1)OCO3)[C@@H](C)CN([C@@H](C)CO)C2=O
 : 1.5	.
> C[C@@H]1CN([C@H](C)CO)C(=O)c2cccc(NC(=O)c3ccc(-c4nccs4)cc3)c2O[C@@H]1CN(C)Cc1ccc2c(c1)OCO2
 : -0.6	.
> CCn1c(O)c(/C=C2/C=CC=N2)c(=O)[nH]c1=S
 : -1.3	0.5
> Cc1ccc2oc(=O)c3cc(C(=O)NCCN4CCCCC4C)sc3c2c1 (stereo unspecified)
 : -0.1	.
> COc1ccc(S(=O)(=O)Nc2cccc3c2O[C@H](CN(C)Cc2ccc(C(F)(F)F)cc2)[C@H](C)CN([C@H](C)CO)C3=O)cc1
 : -8.6	.
> c1ccc(-c2csc3ncn4cnnc4c23)cc1
 : -1.0	.
> C[C@@H]1CN([C@H](C)CO)C(=O)c2cccc(NC(=O)c3nc4ccccc4s3)c2O[C@H]1CN(C)Cc1ccc(C(F)(F)F)cc1
 : -1.4	.
> Cc1cc(C)c2c(N)c(S(=O)c3ccc(C(C)(C)C)cc3)sc2n1 (stereo unspecified)
 : 1.2	0.3
> CCC(C)N1C(=O)C2C(C(=O)Nc3cccc(C)c3)C3C=CC2(O3)C1C(=O)NC1CCCC(C)C1C (stereo unspecified)
 : -3.2	.
> C[C@@H]1CN([C@@H](C)CO)C(=O)c2cccc(NC(=O)C3CCCCC3)c2O[C@H]1CN(C)C(=O)NC1CCCCC1
 : -1.3	.
> COc1ccc(CC(=O)Nc2ccc(OC)cc2)cc1
 : 0.4	-0.7
> CCCOc1ccc(C(=O)Nc2ccc(-c3nc4ccccc4o3)cc2)cc1
 : 4.7	0.8
> CC(=O)c1ccc(O[C@@H]2O[C@H](CO)[C@@H](O)[C@H](O)[C@H]2O)c(/C=C/C(C)(C)O)c1
 : -3.2	0.2
> CN(C)CCSc1nc(-c2cccs2)cc(-c2ccc(Cl)cc2)c1C#N
 : 10.9	-0.6
> O=c1c(-c2nn[nH]n2)coc2ccccc12
 : -6.0	0.3
> COc1ccc(S(=O)(=O)Nc2ccc3c(c2)C(=O)N([C@@H](C)CO)C[C@H](C)[C@@H](CN(C)C(=O)Nc2ccc(F)cc2)O3)cc1
 : -3.9	-0.3
> C=C1CCC2(C(=O)OC3OC(CO)C(O)C(O)C3O)CCC3(C)C(=CCC4C5(C)CC(O)C(OC6OCC(O)C(O)C6OC6OC(CO)C(O)C(O)C6O)C(C)(CO)C5CCC43C)C2C1 (stereo unspecified)
 : -3.6	0.2
> C[C@@H]1CN([C@H](C)CO)C(=O)c2cc(NS(=O)(=O)c3ccccc3)ccc2O[C@@H]1CN(C)CC1CC1
 : -2.8	-1.0
> C[C@@H]1CN([C@@H](C)CO)C(=O)c2cc(NC(=O)C3CCCCC3)ccc2O[C@H]1CN(C)CC1CCCCC1
 : -0.1	-1.0
> Cc1[nH]n(-c2ccccc2)c(=O)c1C=Nc1cccc(N)c1
 : -5.0	-1.3
> C[C@@H]1CN([C@@H](C)CO)C(=O)c2cccc(NC(=O)C3CCCCC3)c2O[C@H]1CN(C)S(=O)(=O)c1ccc(Cl)cc1
 : -7.8	.
> COc1ccc2ncc(S(=O)(=O)c3ccccc3)c(N3CCC(C(N)=O)CC3)c2c1
 : -1.6	0.1
> O=C(O)c1ccc(S(=O)(=O)c2ccc(Cl)cc2)cc1
 : -3.0	1.1
> N#Cc1sc2nc(-c3ccncc3)ccc2c1N
 : 2.1	0.2
> C[C@H]1CN([C@@H](C)CO)C(=O)c2cccc(NS(=O)(=O)c3ccc(F)cc3)c2O[C@H]1CN(C)C(=O)Nc1ccc(F)cc1
 : -3.4	.
> C[C@@H]1CN([C@H](C)CO)C(=O)c2cc(NC(=O)Nc3ccccc3)ccc2O[C@H]1CN(C)C(=O)Nc1cccc2ccccc12
 : 1.4	0.5
> CSc1scc(NC(=O)c2ccc(Cl)cc2)c1S(=O)(=O)C(C)C
 : -0.4	1.2
> CC(C)[C@@H]1NC(=O)[C@H](Cc2ccccc2)NC(=O)[C@@H](CC(=O)O)NC(=O)CNC(=O)[C@H](CCCN=C(N)N)NC1=O
 : 1.6	4.0
> CN1CCN(c2ccc(CNS(=O)(=O)c3ccc4c(c3)CCO4)cc2)CC1
 : 10.7	-0.6
> C[C@@H]1CN([C@H](C)CO)C(=O)c2cccc(NS(=O)(=O)c3ccccc3)c2O[C@@H]1CN(C)S(=O)(=O)c1cn(C)cn1
 : -2.1	.
> Cc1ccc(N(C)C(=O)Cn2c(=O)oc3cc(S(=O)(=O)N4CCCC4)ccc32)cc1
 : -5.8	0.3
> O=C(COc1ccccc1)N1CCNC1=O
 : 3.0	-1.0
> COC(CNC(=O)c1ccc(CS(=O)c2ccccc2)o1)OC (stereo unspecified)
 : 0.9	.
> C[C@@H]1CN([C@@H](C)CO)C(=O)c2cccc(NC(=O)c3cnccn3)c2O[C@H]1CN(C)C(=O)Nc1cccc2ccccc12
 : 0.4	.
> COC(=O)c1ccccc1Oc1c(F)c(F)nc(N2CCOCC2)c1F
 : 2.1	0.3
> COC(=O)C1=COC(OC2OC(CO)C(O)C(O)C2O)C2C1C(O)CC2(C)OC(C)=O (stereo unspecified)
 : -1.3	0.1
> CC(C)NC(=O)Nc1cccc2c1O[C@H](CN(C)Cc1ccc(Oc3ccccc3)cc1)[C@H](C)CN([C@@H](C)CO)C2=O
 : 0.0	.
> Fc1nc(Nc2ccccc2)c2c(c1Cl)Oc1ccccc1O2
 : -0.7	0.3
> C[C@@H]1CN([C@@H](C)CO)C(=O)c2cccc(NS(=O)(=O)c3ccc(F)cc3)c2O[C@@H]1CN(C)Cc1ccncc1
 : 1.2	.
> COc1ccc(NC(=O)Nc2cccc3c2O[C@H](CN(C)C(=O)Nc2ccc(C(F)(F)F)cc2)[C@H](C)CN([C@H](C)CO)C3=O)cc1
 : 1.8	.
> CC(C)c1ccc(S(=O)(=O)N2CCN(S(=O)(=O)c3ccc(C(C)C)cc3)C(C)C2)cc1 (stereo unspecified)
 : 4.1	-1.0
> COc1ccc(-c2coc3cc(O)ccc3c2=O)c(OC)c1O
 : -9.0	-0.1
> COC(=O)NC(C)N1C(=O)C2C3C=CC(C3)C2C1=O (stereo unspecified)
 : 0.1	0.3
> CCc1ccc(NC(=O)Cn2cc(S(=O)(=O)c3ccccc3)c(=O)c3ccccc32)cc1
 : -8.7	0.7
> O=C(CCCn1c(=S)[nH]c2cc3c(cc2c1=O)OCO3)N1CCN(c2ccccc2F)CC1
 : -1.0	0.1
> CCC(=O)Nc1cccc(-c2cn3cccnc3n2)c1
 : 0.7	.
> S=c1[nH]nc(COc2ccc3c(c2)CCCC3)o1
 : 9.1	-1.2
> C[C@H](CO)N1C[C@H](C)[C@@H](CN(C)S(=O)(=O)c2ccccc2)Oc2ccc(N(C)C)cc2C1=O
 : 2.4	-0.3
> O=C(COc1cccc2ccccc12)N1c2ccccc2CCc2ccccc21
 : -3.5	0.1
> S=C(Nc1cccc(Cl)c1)NC1CCSc2ccc(Cl)cc21 (stereo unspecified)
 : -1.7	1.8
> O=C(CSc1nnc2scc(-c3ccccc3)n12)N1CCCCCC1
 : -1.4	0.1

(listing goes on)
Values in the order: BJeLR viab HTS	A1 inhib
> COc1ccc(NC(=O)Nc2ccc3c(c2)C(=O)N([C@@H](C)CO)C[C@H](C)[C@@H](CN(C)C(=O)Nc2c(C)noc2C)O3)cc1
 : -3.1	0.0
> COc1ccc(CN(C)C[C@@H]2Oc3ccc(NC(=O)Nc4cccc5ccccc45)cc3C(=O)N([C@H](C)CO)C[C@@H]2C)cc1
 : 3.9	0.3
> O=C(NCCC1=CCCCC1)c1ccc2c(Cl)c3c(nc2c1)CCC3
 : -1.4	-1.0
> CCC(C)NC(=O)Nc1ccc(C)c(Cl)c1 (stereo unspecified)
 : 0.3	-2.0
> O=C(Nc1ccc(NC(=S)NC(=O)c2cc3ccccc3o2)cc1)c1ccco1
 : 4.7	0.9
> COc1cc(O)c(Cc2ccccc2O)c(O)c1C(=O)CCc1ccccc1
 : 22.0	-2.7
> C[C@@H]1CN([C@H](C)CO)C(=O)c2cc(NC(=O)Nc3ccc4c(c3)OCO4)ccc2O[C@@H]1CN(C)C(=O)Nc1ccccc1
 : 4.2	0.0
> CC(NC(=O)CSc1nnc(-c2cccc(F)c2)n1-c1ccccc1)c1ccccc1 (stereo unspecified)
 : 3.1	1.7
> Cc1noc(C)c1NC(=O)N(C)C[C@H]1Oc2ccc(NC(=O)C3CC3)cc2C(=O)N([C@H](C)CO)C[C@@H]1C
 : 0.4	1.2
> C[C@H](CO)N1C[C@H](C)[C@H](CN(C)Cc2ccc(C(=O)O)cc2)Oc2ccc(NS(=O)(=O)c3ccc(F)cc3)cc2C1=O
 : -6.9	-0.7
> C[C@@H]1CN([C@@H](C)CO)C(=O)c2cccc(NS(=O)(=O)c3ccccc3)c2O[C@@H]1CN(C)CC1CCCCC1
 : 2.3	.
> C[C@H](CO)N1C[C@H](C)[C@H](CN(C)Cc2ccccc2)Oc2ccc(NC(=O)Cn3cnnn3)cc2C1=O
 : 1.2	0.5
> C[C@@H]1CN([C@H](C)CO)C(=O)c2cccc(NC(=O)Nc3cccc4ccccc34)c2O[C@@H]1CN(C)Cc1ccc2c(c1)OCO2
 : -1.4	.
> C[C@H]1CN([C@@H](C)CO)C(=O)c2cc(NC(=O)c3ccncc3)ccc2O[C@H]1CN(C)C(=O)NC1CCCCC1
 : -0.7	-0.4
> COc1ccccc1C(=O)Nc1ccc2oc(-c3ccc4ccccc4c3)nc2c1
 : 3.8	-0.3
> Cc1ccc(CCNC(=O)C2CCC(Cn3c(=O)[nH]c4ccsc4c3=O)CC2)cc1 (stereo unspecified)
 : -4.6	.
> Cc1ccc(S(=O)(=O)NCC(=O)N2CCC(C)CC2)cc1
 : -4.4	0.1
> O=C(NCc1ccc2c(c1)OCO2)c1nnc(-c2ccccc2)o1
 : 2.0	.
> CN1C(=O)CC(c2ccccc2)C1=O (stereo unspecified)
 : 2.9	-0.4
> N=c1ccccn1CC(O)c1ccccc1 (stereo unspecified)
 : -0.6	0.3
> C[C@@H]1CN([C@@H](C)CO)C(=O)c2cc(NS(=O)(=O)c3ccc(F)cc3)ccc2O[C@@H]1CN(C)C
 : 6.3	0.6
> CCOC(=O)c1c(C)noc1-c1ccco1
 : -3.3	1.0
> CC(C)NC(=O)Nc1cccc2c1O[C@@H](CN(C)C(=O)Nc1cccc3ccccc13)[C@@H](C)CN([C@@H](C)CO)C2=O
 : -9.4	.
> CCCN(C1=NC2CS(=O)(=O)CC2S1)c1ccccc1F (stereo unspecified)
 : 1.1	0.8
> C[C@@H]1CN([C@H](C)CO)C(=O)c2cccc(NC(=O)C3CCOCC3)c2O[C@H]1CN(C)Cc1ccc(Cl)c(Cl)c1
 : 3.6	.
> CCOC(=O)c1cnc2c(OC)cccc2c1N1CC(C)CC(C)C1 (stereo unspecified)
 : 0.5	-0.2
> C[C@H]1CN([C@@H](C)CO)C(=O)c2cccc(NC(=O)c3cnccn3)c2O[C@H]1CN(C)S(=O)(=O)c1ccc(Cl)cc1
 : 2.8	.
> N#Cc1c(OCC(F)(F)F)ccc(S(=O)(=O)N2CCCC2)c1OCC(F)(F)F
 : -7.3	0.5
> COc1ccc(C(=O)NCc2ccc3c(c2)OCO3)cc1
 : -1.7	-0.5
> COc1ccc(S(=O)(=O)Nc2ccc3c(c2)C(=O)N([C@H](C)CO)C[C@@H](C)[C@H](CN(C)S(=O)(=O)c2ccc(Cl)cc2)O3)cc1
 : 0.2	0.0
> Cc1ccn2cc(CNS(=O)(=O)c3ccc(Cl)s3)nc2c1
 : -2.9	-0.2
> Cc1noc(C)c1NC(=O)N(C)C[C@@H]1Oc2c(NC(=O)c3cnccn3)cccc2C(=O)N([C@H](C)CO)C[C@@H]1C
 : -3.3	.

Grouped by structure, those above with a CF3 group (four)
Values in the order: BJeLR viab HTS	A1 inhib
> COc1ccc(S(=O)(=O)Nc2cccc3c2O[C@H](CN(C)Cc2ccc(C(F)(F)F)cc2)[C@H](C)CN([C@H](C)CO)C3=O)cc1
 : -8.6	.
> C[C@@H]1CN([C@H](C)CO)C(=O)c2cccc(NC(=O)c3nc4ccccc4s3)c2O[C@H]1CN(C)Cc1ccc(C(F)(F)F)cc1
 : -1.4	.
> COc1ccc(NC(=O)Nc2cccc3c2O[C@H](CN(C)C(=O)Nc2ccc(C(F)(F)F)cc2)[C@H](C)CN([C@H](C)CO)C3=O)cc1
 : 1.8	.
> N#Cc1c(OCC(F)(F)F)ccc(S(=O)(=O)N2CCCC2)c1OCC(F)(F)F
 : -7.3	0.5
